Tg IFNy HTS – T. gondii growth inhibition under IFN-gamma. Toxoplasma gondii growth in IFN-gamma-treated host cells; stronger effect = lower value; reference of the scale not given here. activity change, negative = inhibition, %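 (about 20 µM by stock and volumes)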. 69,000 tested, 3.8% active. AID 1259416;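 active = below -70%; inconclusive = fit judged invalid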;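 note: host cells are HeLa cells infected with Toxoplasma gondii; parasite growth read as luciferase light; one replicate is shown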
Numbers without * were called inactive; i = inactive; ? = inconclusive; & = joins results of further samples.

SMILES | Tg IFNy HTS
CO[C@@H]1CN(C)C(=O)c2cc(NS(=O)(=O)c3ccccc3C)ccc2OC[C@@H](C)N(S(=O)(=O)c2ccccc2)C[C@H]1C | ?
C[C@@H]1CN([C@H](C)CO)C(=O)c2cc(N(C)C)ccc2O[C@@H](C)CCCCO[C@@H]1CN(C)C(=O)NC1CCCCC1 | 191
CCCNC(=O)N(C)C[C@H]1Oc2cc(C#C[C@H](C)O)ccc2S(=O)(=O)N([C@@H](C)CO)C[C@H]1C | 102
CC(NC(=O)CSC12CC3CC(CC(C3)C1)C2)C(=O)N(C)C (stereo not given) | -4
Cc1ccc(Oc2ccc(C#N)c(C#N)c2)c(-n2nc3ccccc3n2)c1 | 22
CCN(C)c1ncc2c(c1C(=O)O)CCN(Cc1cnn(C)c1)C2 | 3
O=C(c1ccncc1)N1CC2(C1)[C@H](c1ccccc1)[C@@H](CO)N2CC1CC1 | 50
COc1ccc(CNC(=O)c2ccc(-c3nc(CN4CCc5ccccc54)c(C)o3)cc2)cc1 | -19
Cc1cccc(CN2CCCC3(CCN(C(=O)c4cccn4C)C3)C2)n1 (stereo not given) | -22
O=C(Nc1ccc(C(F)(F)F)cc1)N[C@H]1C=C[C@H](CC(=O)N2CCCCC2)O[C@H]1CO | -63

Molecules above that have sulfur, in the order listed:
SMILES | Tg IFNy HTS
CO[C@@H]1CN(C)C(=O)c2cc(NS(=O)(=O)c3ccccc3C)ccc2OC[C@@H](C)N(S(=O)(=O)c2ccccc2)C[C@H]1C | ?
CCCNC(=O)N(C)C[C@H]1Oc2cc(C#C[C@H](C)O)ccc2S(=O)(=O)N([C@@H](C)CO)C[C@H]1C | 102
CC(NC(=O)CSC12CC3CC(CC(C3)C1)C2)C(=O)N(C)C (stereo not given) | -4

More compounds.
SMILES | Tg IFNy HTS
Cc1nc(-c2cccc(F)c2)sc1CCNC(=O)c1cccc(Cl)c1 | 18
O=C(OCN1C(=O)c2ccccc2C1=O)c1ccc(F)cc1 | 8
CC(C)(O)C#Cc1ccc([C@H]2[C@H]3CN(S(C)(=O)=O)CCCCN3[C@H]2CO)cc1 | 9
OCCn1c(-c2ccc3c(c2)CCO3)nc2ccccc21 | 1
Cn1c2c(ccc1=O)CC(NCc1ccc3c(c1)OCO3)CC2 (stereo not given) | -1
COC(=O)c1cc2n(n1)CCCN(C(=O)CCn1nnc3ccccc31)C2 | -5
COCc1nnc2n1CCN(Cc1ccsc1)C2 | -6
C/C=C/c1ccc(C2[C@@H]3CN(C(=O)Nc4ccccc4F)C[C@H]2N3)cc1 (stereo not given in full) | -33&-17
Cc1cc(C)n(C(=O)C(Cc2ccccc2)N2C(=O)C3CCCCC3C2=O)n1 (stereo not given) | -6
C[C@H](CO)N1C[C@H](C)[C@H](CN(C)C(=O)c2cnccn2)Oc2cc(C#CCC3CCCC3)ccc2S1(=O)=O | -100*
COc1cc(OC)c(NC(=O)Cn2c(=O)cc(C(=O)N3CCCC3)c3ccccc32)cc1Cl | 1
O=C(O)C1CSC(C2CC=CCC2)N1 (stereo not given) | 4
CC(C)CN1CCS(=O)(=O)[C@H]2CCN(S(=O)(=O)c3ccccc3)CC[C@@H]21 | -30
CS(=O)(=O)Nc1cccc(C(=O)CC2(O)C(=O)Nc3ccc(Br)cc32)c1 (stereo not given) | 10
CC(=O)OCC(=O)[C@@]1(O)CC[C@H]2[C@@H]3CCC4=CC(=O)C=C[C@]4(C)[C@@]3(Cl)[C@@H](Cl)C[C@@]21C | 13
CCc1ccccc1-c1cncc(OC)c1 | 3
Cc1ccc(CN2C[C@@H]3CN(CC4CCOC4)C[C@H]3C2)cc1 (stereo not given in full) | -11
CCCN1[C@H](C(=O)NCCCN2CCOCC2)[C@@H](CO)[C@@H]2Cn3c(ccc(-c4ccncc4)c3=O)[C@@H]21 | 0
C=CCOCC1c2nnn(C)c2CCN1C(=O)c1cscn1 (stereo not given) | 1
O=C(COc1ccccn1)N1CCC(C(O)(c2ccccc2)c2ccccc2)CC1 | 44
Cc1ccc(-c2coc(-c3ccc(NC(=O)NCc4ccccc4)cc3)n2)c(C)c1 | 17
CCc1cccc(NC(=O)c2c(O)c3ccccc3[nH]c2=O)c1 | -11
COc1ccccc1C(=O)N1CCN(S(=O)(=O)c2cc3c4c(c2)CCN4C(=O)CC3)CC1 | 31
Cc1cc(C)n(CCn2ccnc2-c2nc[nH]c2C)n1 | -6
O=C(C[C@H]1CC[C@@H]2[C@H](COC[C@@H](O)CN2CCc2ccccc2)O1)NCCCN1CCOCC1 | 6
COc1ccc(-n2c(=O)c(C(=O)Nc3cccc(Cl)c3)c(O)c3cccnc32)cc1 | 99
Cc1nnc(SC(C)C(=O)Nc2ccc(Cl)cc2)[nH]c1=O (stereo not given) | 22
CO[C@@H]1CN(C)C(=O)c2ccc(NC(=O)c3nc4ccccc4s3)cc2OC[C@H](C)N(Cc2cccnc2)C[C@@H]1C | 4
N#C[C@H]1[C@@H](c2ccccc2-c2cccc(F)c2)[C@@H](CO)N1C(=O)CN1CCOCC1 | 10
O=C(CCC(=O)NC1CCCCCC1)NCCn1nnc2ccccc21 | 50
Cc1cc(-c2ccccc2)nc2oc3c(=O)[nH]cnc3c12 | -26
COC(=O)c1cc(C)nc2c1c(=O)n(Cc1nc(-c3ccccc3C)oc1C)c(=O)n2-c1ccccc1 | -60
O=C(O/N=C1\CSCc2ccccc21)c1ccccc1Cl | 37
COc1ccc2c3c(n(C)c2c1)[C@@H](CO)NCC31CCN(Cc2cc(F)ccc2F)CC1 | -66
CCOC(=O)CCN(c1ccccc1)S(=O)(=O)c1ccc2[nH]c(=O)ccc2c1 | 52
O=C1CCc2cc(NC(=O)c3cncc(Br)c3)ccc2N1 | -4
C[C@@H]1CN([C@@H](C)CO)C(=O)c2cc(-c3ccc(C#N)cc3)cnc2O[C@@H]1CN(C)Cc1cccnc1 | -37
CC(C)n1cnnc1CN(C)C(=O)C(O)c1ccc(C(F)(F)F)cc1 (stereo not given) | -2
COc1cccc(NC(=O)c2ccc3nnc(C4CCN(Cc5ccccc5)C4)n3c2)c1 (stereo not given) | -16
O=c1ccc2c([nH]1)CCN(Cc1ccc3c(c1)OCO3)CC2 | 5
C[C@@H]1CCCCO[C@@H](CN(C)S(=O)(=O)c2ccc(F)cc2)[C@H](C)CN([C@H](C)CO)C(=O)c2cc(N(C)C)ccc2O1 | i
C[C@@H]1CN([C@H](C)CO)C(=O)c2cc(NC(=O)CCC(F)(F)F)ccc2O[C@@H](C)CCCCO[C@H]1CN(C)C(=O)Nc1cccc2ccccc12 | i
COCC1CN(Cc2csc(C)n2)Cc2nccn2C1 (stereo not given) | -44
COc1ccc(CNC(=S)NN)cc1 | 7
Cc1ccc(NC(=O)Cn2ncc3c(N4CCOCC4)ncnc32)cc1F | -23
CCN1CCNC(=O)C12CCN(Cc1nccn1C)CC2 | 327
C/C=C/c1ccc2c(c1)[C@H]1[C@H](CCN1Cc1ccc(F)cc1)[C@H](CO)N2 | 11
CCOCCSc1nsc(N)n1 | -52
COCC(=O)N1[C@@H](CO)[C@@H]2c3ccccc3N(C(=O)c3cccnc3)C[C@@H]21 | -5
CCC(=O)N1[C@H](CO)[C@H](c2ccccc2)C12CN(C(=O)c1ccncc1)C2 | -2

The list goes on:
SMILES | Tg IFNy HTS
COC(=O)c1cc2n(n1)CCCN(Cc1cccn1-c1ccccn1)C2 | -1
O=C1COC2(CCN(c3ncccn3)CC2)CN1c1ccsc1 | 7
CCOC(=O)[C@@]12CCCN(C(=O)COC)C[C@@H]1CN(C(C)=O)C2 | -1
O=C(Nc1cccc(Cl)c1)C1=NOC2(CCCN(S(=O)(=O)c3ccccc3)C2)C1 (stereo not given) | -4
CN(Cc1ccsc1)C(=O)c1ccc(C#CC(C)(C)O)o1 | 15
O=C(Nc1cnn(-c2ncncc2N2CCCCC2)c1)C1CCCCC1 | -80*
CCS(=O)(=O)N1CCN(C(=O)C2=C(C)NC(=O)NC2C)CC1 (stereo not given) | -14
OCC1(Cc2ccc(F)cc2F)CCCN(c2nc3ccccc3s2)C1 (stereo not given) | -8
CC(=O)Nc1ccc(Cl)c(C(=O)N(C)CCc2nc3ccccc3[nH]2)c1 | 6
Cc1ccc(C(=O)N2CCC3(CC2)Nc2ccc(Cl)cc2-n2cccc23)cc1F | 72
COc1ccc(C(=O)N2CCC3(CC2)CNC(=O)C3)c(C)c1 | -7
COc1cccc(-c2[nH]ncc2C(=O)N2CCN(C)C3(CCN(C)CC3)C2)c1 | -1
CCn1cc(CN(C)C(=O)c2ccc(NC(=O)c3ccoc3C)cc2)cn1 | 89
COc1ccc(-n2nc3ccc(NC(=S)NC(=O)c4cccs4)cc3n2)cc1 | 32
CCc1[nH]c2c(CNS(=O)(=O)N(C)C)cc(C)cc2c1C | -5
Cc1ccc(NC(=O)N2CCC(c3nc(C(=O)N4CCOCC4)c(C)o3)CC2)c(C)c1 | 12
Cc1cc(C)n(CC(=O)N2CCC(c3cc4cccnc4[nH]3)CC2)n1 | 7
Cc1nc(CN2C(=O)CCC3C2CCN3c2ncc(F)cn2)cs1 (stereo not given) | 307
COc1ccc(C#Cc2ccc([C@H]3[C@@H](CO)N4CCCCN(C)C[C@@H]34)cc2)cc1 | 10
Oc1cc(O)cc(O)c1 | 13
CC(C)(C)c1nc(CN2CC(c3ccncc3)C2)no1 | 14
Cc1ccc2c(c1C)-n1cccc1C1(CCN(C(=O)c3ccc(Br)cc3)CC1)N2 | 27
O=C(Cn1c(=O)cc(C(=O)N2CCCC2)c2ccccc21)Nc1ccc(F)cc1 | 8
CCN(CC)S(=O)(=O)c1ccc2c(c1)cc(C(=O)NCCN1CCCC1)n2C | -48
Cc1c(C(=O)NC(=S)Nc2ccc(Cl)cn2)oc2ccccc12 | 35
Cc1ccc(S(=O)(=O)Nc2cc(C(C)(C)C)sc2C#N)cc1 | 1
CCN1C[C@@H]2C3(CCN(C(=O)C4CCOCC4)CC3)CC[C@]2(C(=O)N2CCCC2)C1 | -32
CCCNC(=O)N1CC2(CCN(Cc3nccs3)CC2)c2c([nH]c3cc(OC)ccc23)[C@H]1CO | 116
Cc1cnn(Cc2nc(-c3ccc(NC(=O)C(C)(C)C)cc3)oc2C)c1 | 279
Clc1cccc(-c2nccn2-c2ccc(Oc3nn[nH]n3)cc2)c1 | 3
COc1ccc(-c2cc3c(=O)n(Cc4nc(-c5ccc(OC(C)C)cc5)oc4C)ccn3n2)cc1 | -54
CO[C@@H]1CN(C)C(=O)c2cc(NC(=O)Nc3cccc(Cl)c3)ccc2OC[C@@H](C)N(C(=O)Nc2c(C)noc2C)C[C@@H]1C | 77
COc1cc(OC)c(OC)cc1CN1CCN(S(C)(=O)=O)CC1 | -38
CC(C)CC1CNC(=O)C12CCN(S(=O)(=O)c1cccc(F)c1)CC2 (stereo not given) | 21
O=C(O)CCC(=O)N1CC2CC(C1)CN(C(=O)c1ccco1)C2 | -6
CC(NC(=O)c1cccc(C#CC(C)(C)O)c1)C1=CCCCC1 (stereo not given) | -5
Brc1ccc(-c2cnc(/C=C/C=C/N3CCOCC3)s2)cc1 | 272
COc1ccc(-c2nc(Cn3nnc(C(=O)Nc4ccccc4F)c3C)c(C)o2)c(OC)c1 | 61
CC(C)N(Cc1ccccc1)S(=O)(=O)c1cccs1 | -15
OC1(C(F)(F)F)CC(c2cccs2)=NO1 (stereo not given) | -61
O=C(c1ccco1)N1CCC2(CC1)Nc1ccccc1-n1cccc12 | 10
CC12CN3CC(C)(CN(C1)C31C(=O)Nc3ccccc31)C2=O (stereo not given) | 11
O=C(N[C@H]1CCCNC1)c1cn(C/C=C/c2ccccc2)nn1 | -6
COc1ccc(C(=O)N2CCC3(CC2)NC(=O)c2cc(C)ccc2N3C)cc1 | -11
COc1ccc(S(=O)(=O)Nc2ccc3c(c2)C(=O)N([C@H](C)CO)C[C@H](C)[C@H](CN(C)Cc2ccc(C(F)(F)F)cc2)OCCCC[C@@H](C)O3)cc1 | 21
CCN1CCC2(CC1)OC(=O)C(C)=C2C(=O)NCCCN1CCCCC1 | 50
CN1CC(=O)N2CCN(C(=O)NC34CC5CC(CC(C5)C3)C4)CC2C1=O (stereo not given) | 1
CNC(=O)[C@@]12CCC3(CCN(C(=O)NCc4ccc(OC)cc4)CC3)[C@H]1CN(C(C)=O)C2 | -30
CCN1CCO[C@H]2CN(S(=O)(=O)Cc3ccc(C)cc3)CC[C@@H]2C1 | -2
Cc1oc(-c2ccc(Cl)cc2)nc1Cn1nnc(C(=O)Nc2ccc(F)cc2F)c1C | -10

Looked up above:
CN1CC(=O)N2CCN(C(=O)NC34CC5CC(CC(C5)C3)C4)CC2C1=O (stereo not given) in Tg IFNy HTS shows 1
COc1ccc(S(=O)(=O)Nc2ccc3c(c2)C(=O)N([C@H](C)CO)C[C@H](C)[C@H](CN(C)Cc2ccc(C(F)(F)F)cc2)OCCCC[C@@H](C)O3)cc1 in Tg IFNy HTS shows 21
CCN1CCO[C@H]2CN(S(=O)(=O)Cc3ccc(C)cc3)CC[C@@H]2C1 in Tg IFNy HTS shows -2

The list continues.
SMILES | Tg IFNy HTS
COc1ccc2cc(C(=O)OC(C)C)sc(=O)c2c1OC | 17
C=CCN1C(=O)CCC12CCCN(S(=O)(=O)c1cccs1)CC2 (stereo not given) | 11
CC(=O)N1CCn2c(-c3cnn(C)c3)cnc2C12CCN(S(=O)(=O)C1CC1)CC2 | 7
Cc1nc2ccccc2n2cc3c(=O)n(C)c(=O)n(C)c3c12 | 29
CC(c1ccc2c(c1)OCCO2)N(C)Cc1ncccc1C(=O)O (stereo not given) | -38
Cc1cccc(NC(=O)CN2CCC3(CC2)N=C(c2ccc(C)c(C)c2)C(=O)N3)c1 | -10
CC(NC(=O)Cn1ncc2c(N3CCN(c4ccccn4)CC3)ncnc21)c1ccccc1 (stereo not given) | -26
O=C(c1ccc(-c2ccc(F)cc2)o1)N1CCC(n2c(=O)oc3ccccc32)CC1 | -35

Screens as filed in PubChem BioAssay.

This is a subset; the hit share may differ from the screen's.
